VACV mCherry inh: vaccinia inhibition (mCherry reporter); Vaccinia virus mCherry reporter infection, fluorescence; about a quarter of the inactives have no number; Potency, µM (doses to about 36.5 µM), without a hit: at the top dose activity change, negative = inhibition, hits mostly inhibitors; 0.63% of 310,000 active; active = well fitted inhibition curve with a large enough effect; inconclusive = small, poorly fitted or top-dose-only effect; inactive = no such curve, though single readings can be large or run the other way; tested in A549 cells; also: nearly all actives have a fitted effect of over 35% in size; inactives centre near -10
VACV Venus inh: vaccinia inhibition (Venus reporter); Vaccinia virus Venus reporter expression, fluorescence; Potency, µM (series often up to 36.5 µM), inactives show at the top dose activity change, negative = inhibition, hits mostly inhibitors; 0.46% of 330,000 active; active means well fitted inhibition curve with a large enough effect; inconclusive means small, poorly fitted or top-dose-only effect; inactive means no such curve, though single readings can be large or run the other way; tested in A549 cells; also: nearly all actives have a fitted effect of over 30% in size; inactives centre near -10
* hit, by the source's call; i = inactive; ? = inconclusive; . = no result given; & = joins results of further samples; [ ] = another dose, or the depositor's remark. % is scaled to controls: 0 for no effect and ±100 for the full control effect; potency is read from the fitted curve at half-maximal effect.

#	Structure	VACV mCherry inh	VACV Venus inh
1	Nc1ncc(Br)cc1S(=O)(=O)Nc1cc(C(F)(F)F)cc(C(F)(F)F)c1	?	?
2	CCC(=O)Nc1ccc(NC(=O)CSc2nnnn2C(C)C)cc1	-11%	-11%
3	CCNc1nc(SC(C)C(=O)OC)nc(N(C)C)n1 (configuration not stated)	-2%	-3%
4	Cc1ccc(C2NC(c3ccc(C)cc3)C([N+](=O)[O-])C(C)(C)C2[N+](=O)[O-])cc1 (configuration not stated)	-14%	-10%
5	Nc1cc(=O)[nH]n1C1CCCCC1	i	-3%
6	Cc1ccc(O)c(CN2CCC3CCC(C3)C2)c1 (configuration not stated)	-15%	-4%
7	O=C(CCC1CCCCC1)NCCN1CCOCC1	-15%	-15%
8	Cn1c(NCc2ccccc2O)nc2ccccc21	i	-9%
9	Cc1cc(C)c(NC(=O)C2CCN(c3nc4ccccc4n4cccc34)CC2)c(C)c1	-18%	-14%
10	O=C1CC(O)(C(F)(F)F)Oc2c1ccc1ccccc21 (configuration not stated)	i	-12%
11	COc1ccc(N2C(=O)C(CC(=O)Nc3ccccc3)N(Cc3ccc4c(c3)OCO4)C2=O)cc1 (configuration not stated)	-14%	-5%
12	CCOC(=O)/C(C#N)=C\c1ccc(CC)s1	-17%	-22%
13	CC1=C2CC3C(CC=C4C[C@@H](O)CC[C@@]43C)[C@@H]2CC[C@]12O[C@@H]1C[C@H](C)CN[C@H]1[C@H]2C (some centres not stated)	i	-12%
14	Cc1ccnc(NC(c2ccncc2)c2c(C)[nH]c3ccccc23)c1 (configuration not stated)	-6%	-4%
15	COC(=O)c1c(NC(=O)c2ccoc2C)sc(C)c1C	i	-1%
16	CC(=O)N1CCN(C(=O)OC2CC3CC2[C@H]2CCCCN2C3=O)CC1 (some centres not stated)	12%	4%
17	COc1cc(=O)n2c(c1C(=O)NCc1nonc1C)CCN(Cc1c[nH]c3ccccc13)CC2	-7%	-9%
18	CCCN1CNc2c(c(=O)[nH]c(=S)n2CCc2cc(OC)cc(OC)c2)C1	i	-19%
19	COC(=O)c1sc(NC(=O)COC(=O)C2CCC2)c(C(=O)OC)c1C	i	-17%
20	O=C(CCCOc1ccccc1)n1nnc2ccccc21	i	-5%

Values by screen from the entries so far.
VACV Venus inh, compounds 6–13, in order: -4%, -15%, -9%, -14%, -12%, -5%, -22%, -12%
VACV mCherry inh, compounds 6–13, in order: -15%, -15%, i, -18%, i, -14%, -17%, i

The results go on.
#	Structure	VACV mCherry inh	VACV Venus inh
21	CCN1CCN(C(=O)CS(=O)(=O)Cc2nc(-c3ccc(C)cc3)oc2C)CC1	4%	-16%
22	CCCCn1nnnc1SCC(=O)Nc1ccc(N(C)C)cc1	-11%	-5%
23	CC(CN1CCOCC1)OC(=O)C1COc2ccccc2O1 (configuration not stated)	0%	6%
24	Cc1ccc(OCC(=O)Nc2ccc(CN3CCOCC3)cc2)cc1	i	-29%
25	COc1ccc(C(=O)C(=O)N2CCN(c3ccccc3F)CC2)cc1	-15%	-4%
26	CC(=O)Nc1c(C)nn(-c2ccccc2)c1N1CCC(C(=O)Nc2ccccc2C(F)(F)F)CC1	-2%[7.34 µM]	-6%[7.34 µM]
27	CC(/C=N/NC(=O)c1cccnc1)=C\c1ccco1	i	-7%
28	Cc1ccc(C(=O)OCC(=O)Nc2sccc2C(N)=O)cc1NC(=O)c1ccco1	-17%	-14%
29	COc1ccccc1/C=C(\NC(=O)c1ccccc1)C(=O)NCc1ccco1	-17%	1%
30	COc1cc(-c2noc(C)c2C(=O)NCCc2cccs2)cc(OC)c1OC	i	-1%
31	CCOc1ccc(C(=O)NC(=S)Nc2ccc(N3CCOCC3)c(Cl)c2)cc1[N+](=O)[O-]	-12%	-20%
32	CC[n+]1c(/C=C(\C)Nc2ccccc2)sc2ccccc21	-14%	-9%
33	Cc1cccc(C(=O)NCC(=O)OCC(=O)N2CCc3ccccc32)c1	-13%	-10%
34	CCOc1ccc(CN(C)CC(=O)NNC(=O)c2ccc(Cl)cc2)cc1OC	i	-14%
35	COc1ccccc1CNC(=O)CCc1cn(C)c2ccccc12	i	-23%
36	COc1ccc(NC(=O)CN2CCN(CC(=O)Nc3ccc(OC)c(OC)c3)CC2)cc1	.	-12%
37	COCCCNC(=O)C[C@H]1C[C@H](C(=O)N(C(C)C)C(C)C)[C@@]2(C)c3[nH]c4cc(-c5ccco5)ccc4c3CCN2C1=O	?	-26%
38	COc1cccc(-c2nc(SCc3cc(=O)c4cc(Cl)ccc4[nH]3)n[nH]2)c1	-2%	-2%
39	COc1ccccc1C(=O)NCC(=O)N/N=C/c1cn[nH]c1-c1ccccc1	i	-10%
40	CC(C1CC1)N(Cc1ccccc1)C(=S)Nc1ccccc1Cl (configuration not stated)	-24%	-12%

Record cards, as listed above. Values in the order: VACV mCherry inh | VACV Venus inh
Entry for `COc1ccccc1CNC(=O)CCc1cn(C)c2ccccc12` : i | -23%
Entry for `Cc1ccc(OCC(=O)Nc2ccc(CN3CCOCC3)cc2)cc1` : i | -29%
Entry for `COc1cccc(-c2nc(SCc3cc(=O)c4cc(Cl)ccc4[nH]3)n[nH]2)c1` : -2% | -2%
Entry for `CCCCn1nnnc1SCC(=O)Nc1ccc(N(C)C)cc1` : -11% | -5%
Entry for `COCCCNC(=O)C[C@H]1C[C@H](C(=O)N(C(C)C)C(C)C)[C@@]2(C)c3[nH]c4cc(-c5ccco5)ccc4c3CCN2C1=O` : ? | -26%

Going on with the list:
#	Structure	VACV mCherry inh	VACV Venus inh
41	COc1ccc(C(=O)C2CCCN(S(=O)(=O)N(C)C)C2)c(C)c1 (configuration not stated)	-15%	-5%
42	CCC1=C(c2ccc(C)cc2)S(=O)(=O)N=C1N1CCC(C(=O)NCCc2ccc(Cl)cc2)CC1	-24%	?
43	Cc1ccc2nc(-c3ccc(F)cc3)c(CC3CCCCC3)n2c1	9%	-6%
44	Cc1ccc(C(=O)N2CCCN(c3nc4cc5c(cc4cc3C#N)OCO5)CC2)cc1	?	-21%
45	CCC(=O)N1CCc2cc(S(=O)(=O)CCC(=O)NCc3ccccc3OC)ccc21	-10%	-3%
46	O=S(=O)(c1ccc(Br)cc1)N1CCN(c2ccc3nnc(-c4ccccc4)n3n2)CC1	-23%	?
47	CSc1ncnc2c1ncn2CCCNCc1ccccc1	i	-9%
48	COC(=O)C(CCSC)NC(=O)c1cc2c(n(-c3ccc(Cl)cc3)c1=O)CCCC2=O (configuration not stated)	-2%	-3%
49	CNc1cncc(-c2ccc(F)c(F)c2)n1	9%	1%
50	COc1ccc(N=N/C(=C\O)C(=O)c2cccs2)cc1	?	7%
51	CCc1ccccc1NS(=O)(=O)c1c(C(=O)N2CCCCCC2)c(C)n(C)c1C	i[7.34 µM]	-13%[7.34 µM]
52	COc1cccc(-c2nc(S(=O)(=O)c3ccccc3)c(N3CCCCC3)o2)c1	-20%	-3%
53	Cc1c(C(=O)O)cc(-c2ccccc2)n1Cc1ccccc1	-21%	-11%
54	Cc1ccc(-c2csc(NC(=O)C[n+]3cc(-c4ccccc4)n4c3CCC4)n2)cc1	-17%	?
55	COc1ccc(Cc2c(-c3cccc(Cl)c3)nc3ccc(Br)cn23)c(C)c1	-7%	-16%
56	O=C(CCc1ccccc1)Nc1ccc(NC(=O)c2ccco2)cc1	-6%	-10%
57	CCCCCCOc1ccc(OC(=O)c2cccnc2)cc1	10µM*	?
58	COc1ccc(OC)c(CCNC(=O)C2CCN(c3ncnc4c3nc3n4CCCCC3)CC2)c1	-12%&0%	-12%&-14%
59	N#CC(=C1CCCC1)c1nc(-c2cc3ccccc3oc2=O)cs1	-14%	2%
60	O=C(O)COc1ccc(NC(=O)c2ccco2)cc1	-8%	-2%

Taken from above:
`O=C(CCc1ccccc1)Nc1ccc(NC(=O)c2ccco2)cc1` in VACV Venus inh is listed with -10%
`Cc1ccc(C(=O)N2CCCN(c3nc4cc5c(cc4cc3C#N)OCO5)CC2)cc1` in VACV Venus inh is listed with -21%
`CCC1=C(c2ccc(C)cc2)S(=O)(=O)N=C1N1CCC(C(=O)NCCc2ccc(Cl)cc2)CC1` in VACV mCherry inh is listed with -24%

Next section:
#	Structure	VACV mCherry inh	VACV Venus inh
61	COc1ccc(/C=C(/NC(=O)c2cccc([N+](=O)[O-])c2)C(=O)O)cc1OC	i	-12%
62	COc1ccc(NC(=S)Nc2ccc(OCc3ccccc3)cc2)cc1OC	.	9%
63	Cc1[nH]c2ccccc2c1C(=O)C(=O)NCCC1=CCCCC1	-22%	-17%
64	COc1ccc(-c2ccc(C#N)c(SCC(=O)NCc3ccco3)n2)cc1OC	-3%[7.34 µM]	-9%[7.34 µM]
65	COc1cc(OC)cc(C(=O)N2CCN(C(=O)c3ccc(OC)c(OC)c3)CC2)c1	-6%	-3%
66	CCN(CC(=O)Nc1ccc([N+](=O)[O-])cc1OC)c1ccccc1	-8%	4%
67	COc1ccc(C(C(=O)NC2CCCCC2)N(C(=O)c2csnn2)C2CC2)cc1 (configuration not stated)	2%	-3%
68	Cc1ccc(/C=C/C(=O)O)cc1S(=O)(=O)N1CCCc2ccccc21	-6%	-15%
69	Cc1ccccc1NS(=O)(=O)c1cc(C(=O)NCc2ccncc2)ccc1Cl	-21%	-13%
70	COc1ccc(CC(N)c2csc(Nc3nncc4ccccc34)n2)cc1 (configuration not stated)	-22%	?
71	O=C(CN1CCN(CCC(=O)Nc2ccccc2F)CC1)Nc1ccc(F)cc1	-5%	-22%
72	CC(Oc1ccccc1)C(=O)NCC1Cc2cc(F)cc(-c3ccccn3)c2O1 (configuration not stated)	2%	-3%
73	CCc1cc(C(=O)N2CCN(c3ccccn3)CC2)sc1C	-1%	-7%
74	Cc1ccc2cccc(NC(=O)c3ccc(-c4ccc(Cl)cc4Cl)o3)c2n1	-13%	-10%
75	CC(=O)Nc1nnc(CCS(=O)(=O)c2ccc(Cl)cc2)s1	i	2%
76	CCC12CN3CCN(CC(C3)/C1=N\O)C2	i	-13%
77	CC(C)Oc1ccc(S(=O)(=O)N2CCCCC2)cc1NC(=O)C1CCC1	i	-11%
78	CCc1ccc2[nH]c(=O)c(CN(CCO)C(=O)NCc3ccccc3)cc2c1	i	-10%
79	Cc1ccc(N2CSC3=C(C#N)C(c4cccs4)CC(=O)N3C2)cc1 (configuration not stated)	8%	-1%
80	O=C(/C=C/c1ccccc1)Nc1ccc(N2CCCCC2)cc1	-5%	-25%

Continued:
#	Structure	VACV mCherry inh	VACV Venus inh
81	COc1ccc(OC)c(S(=O)(=O)N2Cc3ccccc3CC2C(=O)Nc2nccs2)c1 (configuration not stated)	.	9%
82	Cc1ccc2oc(C(Cl)(Cl)Cl)cc(=O)c2c1	11µM*	?
83	Cc1occc1-c1nnc(SCC(=O)NC(C)(C)C)n1CC(C)C	-2%	-10%
84	COc1cccc(C(C#N)N2CCOCC2)c1 (configuration not stated)	-10%	-8%
85	CCOc1ccc2[nH]cc(S(=O)(=O)c3ccc(C)cc3)c(=O)c2c1	-16%	-8%
86	Cc1cc[n+](-c2[nH]c(=O)sc2/C=N/NC(=O)c2ccccc2[O-])cc1C	-14%	-5%
87	O=C(COC(=O)CCNS(=O)(=O)c1ccc(Cl)cc1)NCc1ccco1	i	-2%
88	Cc1nc(NC(=O)CSc2nnc(-c3ccccc3)c(-c3ccccc3)n2)c(Cl)cc1Cl	-17%	-11%
89	O=C1CCCN2N=C(SCC(=O)Nc3ccc(Cl)cc3)SC2=N1	-17%	-5%
90	CC1Cc2cc(S(=O)(=O)N3CCC(C(=O)Nc4ccccn4)CC3)ccc2N1C(=O)C1CCC1 (configuration not stated)	-23%	-28%
91	O=C(Nc1cccc(O)c1)c1cccc(NC(=O)c2cccs2)c1	-22%	-3%
92	CCN1CCCC1CNC(=O)CCc1nc(-c2ccc(C)cc2)no1 (configuration not stated)	-15%	-18%
93	Cc1ccc(S(=O)(=O)NCc2ccc(C(=O)N3CCCC3)cc2)cc1	-14%	-7%
94	COC(=O)N/N=C\c1cccc(OC(=O)c2cccs2)c1	-5%	-3%
95	COc1ccc(CN(CC(=O)NC(C)C)C(=O)CCC(=O)Nc2nccs2)cc1	1%	3%
96	O=C1CCC(=O)N1CC(O)COc1ccccc1 (configuration not stated)	i	-9%
97	CC(C)NCC(O)c1ccc(NS(C)(=O)=O)cc1 (configuration not stated)	-22%	8%
98	Cn1cccc1C(=O)/C(C#N)=C/c1ccc(F)cc1	-3%	-10%
99	O=C(COc1ccc2ccccc2c1)Nc1ccncc1	?	-21%
100	COc1ccc(Cl)cc1NC(=O)COC(=O)CCCN1C(=O)c2ccccc2C1=O	-2%	-7%

Remaining list, next part:
#	Structure	VACV mCherry inh	VACV Venus inh
101	N[C@H](Cc1cnc[nH]1)C(=O)O	-4%	-8%
102	COc1ccc(NC(=O)C2CCC(CNc3c(N4CCCCC4)c(=O)c3=O)CC2)cc1OC (configuration not stated)	-2%&-6%	-1%&-8%
103	O=C(NNC(=O)c1cccs1)c1ccco1	1%	-7%
104	O=C(CC1Sc2ccccc2NC1=O)Nc1cccc(C(F)(F)F)c1 (configuration not stated)	-14%	-15%
105	O=C1CSC(=S)N1N=Cc1cccc2ccccc12	-15%	7%
106	CC(=O)Nc1nc(C)c(CCC2OCCO2)c(=O)[nH]1	i	-6%
107	Cc1ccc(-c2nn3c(C)nnc3c3ccccc23)cc1S(=O)(=O)NC(C)(C)CO	7%&27%	-12%&-1%
108	CCOC(=O)N1CCC(NC(=O)C2CCCN(Cc3nc(-c4cccc(C)c4)oc3C)C2)CC1 (configuration not stated)	-27%	-14%
109	O=C(Oc1ccccc1F)c1nc(SCc2ccc(F)cc2)ncc1Cl	-6%	-4%
110	CCCCNC(=O)OC(C)CNC(=O)OC (configuration not stated)	-18%	-3%
111	CCCCN(C(=O)c1cc(S(=O)(=O)N2CCCCCC2)ccc1OC)c1c(N)n(CCC)c(=O)[nH]c1=O	i	-19%

Compounds were not picked by outcome, and some 0.82% of all compounds hit somewhere here.
